# RGS16-Gao HTS: modulates binding between human RGS16 and Galphao; bead-based flow cytometry RGS16-Galphao binding, fluorescence; actives lie on both sides; 220,000 tested, 0.38% active; binding response (% of control), % at 10 µM;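 active means below 25% or above 175%, edge rows of some plates excepted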;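 further: Galphao activated by GDP with aluminum fluoride before binding; 100% = wells without compound and 0% = beads without RGS; some results beyond the cut were filed as inactive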
# Target sequence (O15492 whole entry, looked up): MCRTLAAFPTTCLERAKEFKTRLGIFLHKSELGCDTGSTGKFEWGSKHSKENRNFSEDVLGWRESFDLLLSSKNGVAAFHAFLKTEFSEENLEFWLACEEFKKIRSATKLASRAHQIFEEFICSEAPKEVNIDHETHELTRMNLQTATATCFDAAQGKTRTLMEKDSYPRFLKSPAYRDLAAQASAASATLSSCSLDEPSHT
# Target sequence (P09471 whole entry, looked up): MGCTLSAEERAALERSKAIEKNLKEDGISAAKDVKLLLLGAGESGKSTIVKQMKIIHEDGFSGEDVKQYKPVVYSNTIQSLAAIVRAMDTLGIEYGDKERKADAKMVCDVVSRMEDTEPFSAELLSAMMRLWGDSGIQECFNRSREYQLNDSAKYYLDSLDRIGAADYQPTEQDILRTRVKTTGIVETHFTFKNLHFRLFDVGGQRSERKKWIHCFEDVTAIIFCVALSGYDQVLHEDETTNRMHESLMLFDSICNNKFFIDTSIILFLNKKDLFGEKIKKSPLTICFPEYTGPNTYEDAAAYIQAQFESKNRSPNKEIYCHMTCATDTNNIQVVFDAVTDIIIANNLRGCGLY
# HSV augment: increases HSV replication in cells; HSV replication augmentation in cells, fold increase; maximum fold increase; 220,000 tested, 0.005% active;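 active means peak rise of 1.5-fold or more in the series; inconclusive means self-fluorescent or not available for retest; tested in PC3 cells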;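 further: first round at 10 µM; read as green reporter fluorescence; hits show the peak of a series up to 25 µM; 1 = signal of infected wells without compound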
# GALR2 agonist: GALR2 (human) receptor agonism; 140,000 tested, 0.48% active; AID 803; GALR2-expressing cells, agonist activation read-out; O43603; activation, %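 (tested at 5 µM)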;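 active means above mean plus 3 SD of all compounds, about 5% in these data, not always enough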;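 further: 0% = vehicle buffer wells and 100% = reference agonist at full effect; tested in CHO reporter cells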
# Target sequence (O43603 whole entry, looked up): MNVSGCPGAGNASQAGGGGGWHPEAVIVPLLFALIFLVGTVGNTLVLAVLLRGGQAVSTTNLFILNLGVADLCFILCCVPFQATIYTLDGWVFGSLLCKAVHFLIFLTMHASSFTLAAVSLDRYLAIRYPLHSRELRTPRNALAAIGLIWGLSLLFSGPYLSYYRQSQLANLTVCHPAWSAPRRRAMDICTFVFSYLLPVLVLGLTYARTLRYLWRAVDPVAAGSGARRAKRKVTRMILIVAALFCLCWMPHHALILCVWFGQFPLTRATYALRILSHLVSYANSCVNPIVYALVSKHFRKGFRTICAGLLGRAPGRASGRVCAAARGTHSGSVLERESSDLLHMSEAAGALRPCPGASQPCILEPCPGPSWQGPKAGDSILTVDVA
# INS promoter inh: TRM-6 insulin promoter activity inhibition | TRM-6 cells (human fetal islet line), insulin promoter-eGFP reporter, imaging; reporter expression induced with tamoxifen | 130,000 tested, 0.9% active | inhibition, % at 2 µM;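 active means inhibition above the mean plus 3 SD, with well images judged a real hit on visual review, cut at about 60% in these data, passing the limit was not always enough; inconclusive means inhibition over the cutoff but images rejected on review; inactive means inhibition not above the cutoff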
# PKD1 inh: PKD1 (human) kinase inhibition. 200,000 tested, 0.056% active. PKD1 kinase fluorescence polarization assay. inhibition, %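 (about 10 µM by stock and volumes)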;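 active means inhibition of 50% or more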;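 further: controls were vehicle for no effect and a reference inhibitor for full effect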
# INS promoter inh cell count: further read-out of INS promoter inh, marked with its call; normalized cell count, %; measured here: cell count, toxicity; reference of the scale not given here;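 cells exposed to compound for 48 h; stained nuclei by imaging scaled within each plate; lower means fewer cells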
# HSV augment primary fold: second read-out of HSV augment, no call of its own (marks repeat the call); fold increase; compound at 10 µM; measured here: primary screen fold increase 10 uM; tested in PC3 cells;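 GFP signal in the first replicate; 1 = infected wells without compound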
# Active calls of the source: *; i = inactive; u = inconclusive; x = no result given.
# Order of results: RGS16-Gao HTS	HSV augment	HSV augment primary fold	GALR2 agonist	INS promoter inh	INS promoter inh cell count	PKD1 inh
- CCCC(=O)Nc1ccc(Oc2ccc(NC(=O)CCC)cc2)cc1
  100	i	0.96	-1.5	-76	122	-1
- CCCN(CC1CCCO1)C(=O)CCc1nnc(-c2cc(C)on2)o1 (configuration not stated)
  114	i	1	x	x	x	-3
- O=C(O)CCN1/C(=C/C=Nc2ccccc2)Oc2ccccc21
  99	i	0.98	-0.3	x	x	3
- O=C(Nc1ccc(F)cc1)c1nsc(Cl)c1Cl
  116	i	0.95	-2.0	0	100	1
- COc1cccc(CNC(=O)CCC2CCCN(C(=O)c3ccc(OC)o3)C2)c1 (configuration not stated)
  98	i	1.1	x	x	x	0
- COc1ccc(C2COC(=O)C2=N)c(NC(=O)c2ccc(Cl)cc2)c1 (configuration not stated)
  137	i	1	-1.0	-73	59	0
- COC(=O)c1ccc(NC(=O)CSc2nnnn2C2CCCCC2)cc1
  41	i	0.92	-1.0	6	53	-4
- O=c1cc(CSc2nc3ccccc3c(=O)[nH]2)c2ccc(O)cc2o1
  107	i	1.1	x	x	x	-4
- C=CCNc1nc(NCCN2CCOCC2)nc(N2CCOCC2)n1
  106	i	1.1	-0.5	-493	45	-6
- CC(C)c1ccc(NC(=O)NN2CCOCC2)cc1
  96	i	1	x	36	121	3
- O=C(Nc1ccccc1)C1CCCN1C(=O)NCc1ccccc1 (configuration not stated)
  100	i	0.84	x	-71	64	-2
- Cc1nn(CC(=O)Nc2ccncc2)c(C)c1[N+](=O)[O-]
  108	i	0.96	0.0	47	59	-5
- CCc1ccc2[nH]c(=O)c(CN(Cc3ccc4c(c3)OCO4)Cc3nnnn3C3CCCC3)cc2c1
  100	i	0.69	-1.8	-19	141	-6
- CCN(C(=O)COC(=O)c1cncc(Br)c1)C1CCS(=O)(=O)C1 (configuration not stated)
  99	i	0.86	x	44	98	-2
- COc1ccc(-n2c(=S)[nH]c3cc(C(=O)Nc4cccc(C)c4)ccc3c2=O)cc1
  99	i	0.97	1.7	13	87	-6
- c1csc(-c2nn3c(C4COc5ccccc5O4)nnc3s2)c1 (configuration not stated)
  81	i	0.74	-1.6	31	140	-8
- CCSc1nc2ccccc2n1C(=O)c1ccc(S(=O)(=O)N2CCCCCC2)cc1
  106	i	1.1	-2.4	x	x	-9
- C=CC(=O)NC1CC2CCC1(C)C2(C)C (configuration not stated)
  99	i	1.3	x	x	x	x
- CCOC(=O)N=S(N)(=O)c1ccccc1 (configuration not stated)
  107	i	1	-0.9	x	x	-4
- Cn1c(NN)nc2sc3c(c2c1=O)CC(C)(C)OC3
  125	i	0.96	-1.4	62	81	7
- CCOC(=O)c1nc(Nc2ccccc2C)c2ccccc2n1
  103	i	0.85	x	x	x	-2
- CCSc1nnc(NC(=O)C2CCCCC2C(=O)OCC(F)(F)C(F)F)s1 (configuration not stated)
  102	i	0.93	-0.8	-77	165	1
- Cc1ccsc1C(=O)Nc1n[nH]c(C(F)(F)F)n1
  101	i	1.1	x	x	x	x
- O=C(CN(Cc1ccccc1)S(=O)(=O)c1ccc2c(c1)OCCO2)Nc1ccc2c(c1)OCCO2
  478	i	0.98	-3.4	x	x	-1
- Cc1ccccc1OCC(=O)NCC(=O)N/N=C/c1ccc(Br)o1
  85	x	x	1.1	17	125	3
- COc1ccc(CCN2C(=O)CS/C2=N\NC(=O)c2cccs2)cc1OC
  97	i	1.1	x	24	122	-3
- CCCC(=O)Nc1ccc2c(c1)nc(CN1CCCCC1)n2C
  99	i	0.72	-0.8	x	x	-2
- CCc1c(C)[nH]c2nc3ccccc3n2c1=O
  108	i	0.98	1.5	10	62	7
- S=C(Nc1ccccc1)N1CCN(C(=S)c2ccccc2)CC1
  99	i	0.94	x	-47	139	-10
- COc1ccc(Br)cc1C(=O)Nc1nnn(C)n1
  105	i	0.92	-1.6	0	65	-5
- CC1Cc2ccccc2N1C(=O)C1CCN(S(=O)(=O)Cc2ccccc2)CC1 (configuration not stated)
  29	i	0.76	-0.5	x	x	2
- CC(=O)OC1OCCOC1NC(=S)Nc1ccc(C)cc1 (configuration not stated)
  82	i	1	x	0	85	0
- CCc1nc(SCC(=O)NCCc2ccccc2)n[nH]1
  103	i	0.97	1.2	-1	184	2
- CCOC(=O)CSc1nc2sc(C(=O)O)c(C)c2c(=O)[nH]1
  116	i	0.9	-1.1	x	x	-3
- Cc1c(C(=O)Nc2ccc(F)cc2)oc2ccc(S(=O)(=O)N3CC(C)CC(C)C3)cc12 (configuration not stated)
  76	i	0.91	-5.4	71*	40*	-4
- Cc1ccc(NC(=S)Nc2cccc3cnccc23)cc1
  99	i	0.89	x	x	x	-8
- COc1cccc(-c2cc(C(=O)NCCN3CCOCC3)no2)c1
  97	i	0.91	-0.4	x	x	-11
- COc1ccc(OCCC(=O)Nc2nccs2)cc1
  106	i	1	x	x	x	9
- CCOCCOCCC(C(=O)OCC)P(=O)(c1ccccc1)c1ccccc1 (configuration not stated)
  112	i	0.9	0.9	-25	106	3
- CCN1C(=O)C(CC(=O)Nc2ccc(OC)cc2)N(CCc2ccc(OC)cc2)C1=S (configuration not stated)
  105	i	0.84	x	-8	101	1
- Cc1ccc(C)c(NC(=O)c2cc(-c3ccccc3)nn2-c2ccccc2)c1
  105	i	1	-0.9	-3	162	6
- CCCC(=O)NC(Nc1ccc(S(=O)(=O)Nc2ncccn2)cc1)(C(=O)OCC)C(F)(F)F (configuration not stated)
  101	i	0.99	-1.9	x	x	-7
- CCc1nc(N2CCCCC2C)c2oc3ccccc3c2n1 (configuration not stated)
  92	i	0.61	0.4	x	x	16
- FC(F)(F)C(F)(F)c1nnc2ccc(-n3ccnc3)nn12
  108	i	0.92	x	0	87	1
- COc1ccc(C(=O)c2sc3nc(C)cc(-c4cccs4)c3c2N)cc1
  109	u	x	-1.3	-178	96	-6
- CC1CCN(S(=O)(=O)c2ccc(NC(=O)CN3CCN(c4ccccc4)CC3)cc2)CC1
  98	i	0.96	-1.0	-32	164	-3
- O=C(NC(c1ccc(Cl)cc1)c1c(O)ccc2ccccc12)c1ccccc1 (configuration not stated)
  101	i	1	-0.9	-3	68	7
- CC(NCc1ccccc1Cl)C(=O)Nc1ccc(C#N)cc1 (configuration not stated)
  101	i	0.99	x	x	x	-3
- COc1ccc(C2=C(c3ccc([N+](=O)[O-])cc3)C(=O)OC2)cc1
  109	i	0.98	x	0	149	0
- CCc1ccccc1N(CC(=O)N1CCN(c2ccccc2)CC1)S(C)(=O)=O
  99	i	0.88	-2.6	x	x	7
- Cc1ccc(Cl)cc1NC(=S)N(CCCN1CCN(C)CC1)Cc1cccs1
  101	i	0.86	x	x	x	-5
- O=CNCC(=O)NCCc1ccc(Cl)cc1
  105	i	0.84	-0.2	x	x	-6
- O=C(CSc1nnc(NC2CCCCC2)s1)NN1C(=O)NC2(CCCCC2)C1=O
  66	i	1.1	-0.4	26	77	6
- c1ccc(Cn2nnc3c(NCC4CCCO4)ncnc32)cc1 (configuration not stated)
  101	i	0.9	-1.6	-91	72	1
- COCCCNc1oc(-c2cccs2)nc1S(=O)(=O)c1ccc(C)cc1
  100	i	0.92	x	x	x	0
- COc1ccc(NC(=O)c2sccc2C)cn1
  104	i	0.8	x	x	x	-8
- CCn1ncc2c1C(=O)NC1c3ccccc3C(=O)N21 (configuration not stated)
  103	i	0.98	-1.8	29	73	-1
- CC(=O)N(C(C)=O)n1c(C)nc2sc3c(c2c1=O)CCCC3
  103	i	0.98	x	10	66	-1
- COc1ccc(N)c2c1C(=O)c1ccccc1C2=O
  97	i	0.71	1.4	x	x	22
- CC1=C(C(=O)OCC2CCCO2)C(c2coc3ccc(Cl)cc3c2=O)C2=C(CCCC2=O)N1 (configuration not stated)
  96	i	1	x	16	147	9

# Further records follow:
# Order of results: RGS16-Gao HTS	HSV augment	HSV augment primary fold	GALR2 agonist	INS promoter inh	INS promoter inh cell count	PKD1 inh
- CC(C)(C)SCCNC(=O)c1cccc([N+](=O)[O-])c1
  97	i	0.97	-0.7	x	x	1
- Cc1c(NC(=O)c2cc(=O)[nH]c3ccccc23)c(=O)n(-c2ccccc2)n1C
  101	i	0.83	-0.3	13	46	1
- Cc1ccc(NC(=S)N2CCCCC2)cc1C
  101	i	0.98	x	x	x	x
- O=C(O)CC(CP(=O)(c1ccccc1)c1ccccc1)C(=O)O (configuration not stated)
  96	i	0.87	-2.3	x	x	9
- O=C(CCC(=O)Nc1ccccc1Cl)N/N=C/c1c[nH]c2ccccc12
  105	i	1.1	-1.6	8	81	3
- COc1cc(N=c2c([N+](=O)[O-])nn(-c3ccc4c(c3)OCCO4)n2O)cc(OC)c1
  109	i	0.77	-0.8	29	100	-5
- COc1ccc2oc(=O)c(C(=O)Nc3ccccc3O)cc2c1
  107	i	1	x	x	x	x
- CC(=O)Nc1ccc(C(=S)NCc2ccco2)cc1
  106	i	0.9	-1.0	19	95	-2
- CCC(=O)c1c(NCCc2ccccc2)cc(C)oc1=O
  101	i	0.95	x	x	x	-1
- COc1ccc2nc(N3CCOCC3)cc(C)c2c1
  102	i	0.91	-1.2	33	131	1
- CCOC(=O)c1c(NC(=O)c2ccc(N3C(=O)C4C5C=CC(C5)C4C3=O)cc2)sc2c1CCCC2 (configuration not stated)
  102	i	0.76	-2.0	0	81	0
- CC1CN(C2CCN(C(=O)c3cccc(Cl)c3)CC2)CC(C)O1 (configuration not stated)
  110	i	0.94	-2.0	-20	56	3
- CC(C)(C)Sc1ccc2nc3c(n2c1)CCCC3
  110	i	0.95	-0.9	43	96	-8
- COC(=O)C1=C(C)N(Cc2ccc(C)cc2)C(=O)/C1=C\c1cc(OC)c(OC)c(OC)c1
  45	i	0.93	0.1	x	x	-8
- CCc1ccc(OCc2nnc(SCc3ccc(C(=O)O)cc3)o2)cc1
  99	i	0.98	x	11	138	3
- COC(=O)c1c(NC(=O)/C=C/C(=O)O)sc(Cc2ccccc2)c1C
  106	i	0.95	-1.1	8	111	-9
- CN1/C(=C\C(=O)Nc2ccc(F)cc2)C(C)(C)c2ccccc21
  81	i	1.1	-2.2	18	69	-1
- C=CCNCCCCOc1ccc(C)cc1[N+](=O)[O-]
  101	i	0.97	-1.7	-10	100	-11
- CCc1cc2c(=O)c(-c3ccc4c(c3)OCCO4)coc2cc1OS(C)(=O)=O
  104	i	0.95	-0.8	x	x	2
- Cc1cccc(C)c1Nc1nnc(SCC(=O)Nc2cc(S(=O)(=O)N3CCCCC3)ccc2Cl)s1
  98	i	0.87	-0.8	8	159	-2
- OCC1(Cc2cccc(C(F)(F)F)c2)CCN(Cc2cc(F)cc(F)c2)CC1
  105	i	1	x	x	x	-5
- Cc1ccc(C(c2sc3nc(C)nn3c2O)N2CCN(c3ccccc3F)CC2)cc1 (configuration not stated)
  107	i	0.86	0.3	x	x	0
- O=C(Cn1cnc2ccccc2c1=O)NCC1COc2ccccc2O1 (configuration not stated)
  99	i	1.1	-2.0	25	83	0
- COc1ccc(/C=C/C(=O)Nc2ccccc2Cl)cc1S(=O)(=O)N1CCOCC1
  100	i	1	x	x	x	x
- Fc1cccc(NC(=S)NCCCN2CCOCC2)c1
  84	i	0.96	0.8	14	108	4
- COc1ccc(OC)c(N(CC(=O)N2CCc3ccccc3C2)S(C)(=O)=O)c1
  96	i	1	-0.6	-40	203	-1
- C=CCn1c(N)cc(=O)nc1SCC(=O)Nc1ccc2ccccc2c1
  102	i	0.93	-3.4	6	108	5
- COc1ccc(-n2c(Cc3cccn3C)nnc2SCC(N)=O)cc1
  104	i	0.97	-3.2	x	x	-12

# A different layout for 6 compounds above.
molecule | RGS16-Gao HTS | HSV augment | HSV augment primary fold | GALR2 agonist | INS promoter inh | INS promoter inh cell count | PKD1 inh
CC(C)(C)Sc1ccc2nc3c(n2c1)CCCC3 | 110 | i | 0.95 | -0.9 | 43 | 96 | -8
CCC(=O)c1c(NCCc2ccccc2)cc(C)oc1=O | 101 | i | 0.95 | x | x | x | -1
CC(C)(C)SCCNC(=O)c1cccc([N+](=O)[O-])c1 | 97 | i | 0.97 | -0.7 | x | x | 1
COc1ccc2nc(N3CCOCC3)cc(C)c2c1 | 102 | i | 0.91 | -1.2 | 33 | 131 | 1
Fc1cccc(NC(=S)NCCCN2CCOCC2)c1 | 84 | i | 0.96 | 0.8 | 14 | 108 | 4
CCc1ccc(OCc2nnc(SCc3ccc(C(=O)O)cc3)o2)cc1 | 99 | i | 0.98 | x | 11 | 138 | 3

# Screening data (PubChem BioAssay)
